Compound activity as filed in PubChem.
Six1-Eya2 blk: blocks human Six1 binding to Eya2; AlphaScreen GST-Six1/His-Eya2 binding, biochemical; stronger effect = lower value; control for the full effect not named in the record; activity change, % (test concentration not listed); hit rate 0.56% among 360,000; in the data active = activity change below about -65%; inconclusive = about -30% to -65%; inactive = above about -30%; further: on the % scale 0 is the no-effect control and ±100 the full control effect; compound concentration not given in the record
Target sequence (O00167 whole entry, looked up): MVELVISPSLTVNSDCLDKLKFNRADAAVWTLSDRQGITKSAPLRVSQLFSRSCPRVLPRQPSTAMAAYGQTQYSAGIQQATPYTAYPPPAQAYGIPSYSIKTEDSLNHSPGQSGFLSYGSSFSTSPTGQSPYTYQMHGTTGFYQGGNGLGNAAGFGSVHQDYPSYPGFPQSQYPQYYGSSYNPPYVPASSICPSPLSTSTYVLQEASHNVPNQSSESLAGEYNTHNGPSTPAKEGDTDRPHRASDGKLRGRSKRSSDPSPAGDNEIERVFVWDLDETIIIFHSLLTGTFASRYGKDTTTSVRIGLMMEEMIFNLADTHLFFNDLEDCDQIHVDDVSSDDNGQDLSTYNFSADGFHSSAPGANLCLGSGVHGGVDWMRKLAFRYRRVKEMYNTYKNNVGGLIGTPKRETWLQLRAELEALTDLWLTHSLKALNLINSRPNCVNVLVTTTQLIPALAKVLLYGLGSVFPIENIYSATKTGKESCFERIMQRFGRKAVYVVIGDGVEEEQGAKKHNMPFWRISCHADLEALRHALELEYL
Target sequence (Q15475 whole entry, looked up): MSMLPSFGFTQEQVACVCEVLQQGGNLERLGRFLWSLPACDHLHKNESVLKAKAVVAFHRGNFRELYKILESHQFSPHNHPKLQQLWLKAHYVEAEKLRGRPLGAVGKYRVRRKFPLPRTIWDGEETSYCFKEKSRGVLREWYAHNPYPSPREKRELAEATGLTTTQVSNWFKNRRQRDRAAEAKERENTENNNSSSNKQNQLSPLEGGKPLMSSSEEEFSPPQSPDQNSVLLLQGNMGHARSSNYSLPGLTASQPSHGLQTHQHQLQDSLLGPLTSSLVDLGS
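Six1/Eya2 binding was read as AlphaScreen signal after compounds were pinned into GST-Six1 plus His-tagged Eya2 (5X stock 250/500 nM) in pH 8.0 Tris/NaCl/TCEP buffer, beads added, then incubated 1 h, 37 C, dark.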
D2 potentiator: positive allosteric modulators of human D2 dopamine receptor. potentiation, % (no concentration beside the values). hit rate 0.23% among 360,000. P14416. DiscoveRx D2 beta-arrestin cells, luminescence, 90 min; 100% = 57 uM dopamine signal; active = potentiation of 50% or more; inconclusive = 30% to 50%; inactive = 30% or less;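 further: compound concentration not given in the record; tested on top of an EC20 dose of dopamine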
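PathHunter beta-arrestin assay in DiscoveRx D2 cells. Compounds were added with an EC20 of dopamine (50 nM final) for 90 min at 37 deg C. Luminescence was read 1 h after detection reagent, with 57 uM dopamine as the EC100 control.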
gsp antag: gsp mutant antagonism; gsp-mutant cells, cAMP HTRF, 30 min; control for the full effect not named in the record; Potency, µM (titrated, usually from 76.9 µM), for the others: top-dose activity change, negative = inhibition, hits mostly inhibitors; hit rate 0.4% among 340,000; active = falling curve of any shape with a large fitted effect; inconclusive = falling curve, mostly with a smaller effect; inactive = flat or rising curve; cell line not stated here;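 further: intracellular cAMP measured with PDE inhibitor Ro 20-1724 present during compound exposure; potency means the concentration at half of the fitted maximal effect; on the % scale 0 is the no-effect control and ±100 the full control effect; nearly all actives have a fitted effect of over 65% in size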
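HTRF cAMP measurement after 30 min RT detection following 30 min, 37C compound treatment alongside […] (added as 300 uM solution) in G418-selected cells seeded at 2000/well and grown 16–24 h.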
CtBP-E1A blk: inhibitors of CtBP/E1A interaction; AlphaScreen GST-E1A/His-CtBP binding, 1536-well; stronger effect = lower value; control for the full effect not named in the record; activity change, % (no concentration beside the values); hit rate 0.49% among 340,000; AID 651724; in the data active means activity change below about -65%; inconclusive means about -30% to -65%; inactive means above about -30%; further: on the % scale 0 is the no-effect control and ±100 the full control effect; compound concentration not given in the record
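GST-E1A and His-tagged CtBP (125 nM each as 5X stock) were preincubated with pin-transferred compound for 2 h at 37 °C in the dark, then glutathione donor and nickel acceptor beads were added for 1 h before AlphaScreen reading.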
D2 ag: agonists of human D2 dopamine receptor (beta-arrestin); activation, % (test concentration not listed); AID 624465; P14416; DiscoveRx PathHunter D2 beta-arrestin, luminescence, 90 min; 100% = 57 uM dopamine signal; hit rate 0.084% among 360,000; in the data active = activation above about 40%; inconclusive = about 15% to 40%; inactive = below about 15%; further: compound concentration not given in the record; the text of the record calls up to 30% inactive
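DiscoveRx PathHunter D2 beta-arrestin cells (2,100/well) attached overnight, then compound-stimulated 90 min at 37 C in HBSS/10 mM HEPES/0.1% Tween-20 buffer; beta-galactosidase complementation read by luminescence after 1 h at ambient temperature. Dopamine 57 uM final (EC100) as control.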
gsp agonist: gsp mutant agonism. Potency, µM (series often up to 76.9 µM), for inactives: at the highest dose activation (cAMP increase), hits mostly activators. hit rate 0.13% among 340,000. gsp mutant cells, cAMP HTRF, 30 min; control for the full effect not named in the record; active = well fitted activation curve with a large enough effect; inconclusive = small, poorly fitted or top-dose-only effect, or another doubt; inactive = no such curve, though single readings can be large or run the other way; cell line not stated here;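 further: phosphodiesterase inhibitor Ro 20-1724 added with compounds to block cAMP breakdown; potency means the concentration at half of the fitted maximal effect; nearly all actives have a fitted effect of over 60% in size; about a fifth of the inactives were tested at one dose only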
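Cells stably selected in G418 were plated at 2000/well, grown 16-24 hr, then given compounds in DMSO with the PDE inhibitor […] (300 uM solution added) for 30 min at 37C; cAMP was read by HTRF.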
* = called active by the depositor; ? = inconclusive; . = no result given; [ ] = another dose, or the depositor's remark.

SMILES	Six1-Eya2 blk	D2 potentiator	gsp antag	CtBP-E1A blk	D2 ag	gsp agonist
CCCCN1C(=O)/C(=C2/Sc3ccccc3N2C)S/C1=N\c1ncn[nH]1	-7	-3	-20%	-5	2.5	7%
O=C(/C(C=Nc1cccc(C(F)(F)F)c1)=C(/O)c1ccco1)C(F)(F)F	9	-16	-1%	4	-5.1	0%
CCCn1c(SCC(=O)Nc2ccccc2C(=O)NC2CC2)n[nH]c1=O	7	-3	31%	1	-4.1	45µM*
C[C@H]1C(=O)N(C)CCN1C(=O)c1ccccc1OC1CCN(S(C)(=O)=O)CC1	0	-6	26%	7	1.7	-31%[inhibitor]
C/C(=N\NC(=O)c1ccc(CN2CCOCC2)cc1)c1ccc([N+](=O)[O-])cc1	-2	-2	-4%	.	6.4	-1%
Oc1ccc(-c2cc(-c3ccc(O)cc3)nc(-c3ccccc3)n2)cc1	-8	-2	-16%	3	-1.0	?
CC(C)Oc1ccccc1OC1(C)CCN(Cc2ccc(OC(F)(F)F)cc2)C1 (stereo not drawn)	8	-17	.	18	7.7	.
O=C(NCc1ccco1)c1cc([N+](=O)[O-])cc([N+](=O)[O-])c1	-2	83*	9%	1	14	-12%
CC(C)Cc1csc(NC(=O)c2ccccc2Cl)c1C(=O)O	7	14	10%	-3	-1.8	8%[15.4 µM]
COCCCN(C(=O)c1ccco1)c1nc(-c2cc(OC)ccc2OC)cs1	-1	3	-9%	1	-4.7	-39%[inhibitor]
Cc1ccc(SCCN2CCN(C)CC2)cc1	2	-18	6%	-12	0.8	-35%[inhibitor]
COC(=O)c1cn(C(=O)c2ccccc2)c2ccccc12	3	-3	?	.	-7.5	0%
O=C(Cc1cccs1)Nc1nnc(COc2ccccc2)s1	-11	22	6%	1	-3.1	0%
CCC1CCCCN1CCCNC(=O)c1ccc2nc(N3CCC(C)CC3)sc2c1 (stereo not drawn)	2	-10	13%	-3	0.7	-4%
O=C(Nc1ccc(F)c(Cl)c1)C1Cc2c(-c3ccc(Cl)cc3)ccnc2O1 (stereo not drawn)	11	-12	.	-24	-2.0	.
O=C(Nc1ccc2ccccc2c1)c1ccccc1Cl	0	-6	.	3	-0.5	?
CN(CC(=O)Nc1ccc(S(N)(=O)=O)cc1)C1CCCCC1	14	1	-6%	2	-1.4	-13%
CCOc1ccccc1C(=O)NCC(=O)OCCCOC(=O)CNC(=O)c1ccccc1OCC	1	-12	-13%	-4	0.3	-7%
CCOC(=O)C1(Cc2ccccc2)CCN(Cc2cccc3c2OCO3)CC1	-14	-23	.	0	-0.7	19%[15.4 µM]
CC[C@@]1(O)C(=O)OCc2c1cc1n(c2=O)Cc2cc3c(CN(C)C)c(O)ccc3nc2-1	1	9	2%	2	-3.1	.
CC1CCC2(CC1)NC(=O)N(CC(=O)Nc1ccc3c(c1)OCCO3)C2=O (stereo not drawn)	29	5	11%	2	8.6	5%
CN(C)/C=C/C(=O)c1cnc(-c2cccc(Cl)c2)s1	-20	-4	?	-10	-9.7	1%
O=C(N/N=C/c1ccncc1)c1cccs1	0	-4	9%	3	-4.8	-23%
CSc1nnc(C(C)(C)C)c(=O)n1/N=C/c1c(O)ccc2ccccc12	-2	0	-14%	-2	-0.3	5%[15.4 µM]
COc1cccc(C(=O)CSc2nnc(CNc3nc(-c4ccccc4)cs3)n2C)c1	?	-6	-10%	?	2.6	-31%[inhibitor]
S=c1[nH]c2cc(Cl)c3cccnc3c2o1	-16	3	-21%	?	12	28%
O=C1CCC(C(=O)Nc2cccc(S(=O)(=O)N3CCOCC3)c2)N1 (stereo not drawn)	6	-4	-10%	-4	-3.2	?
COc1ccc(S(=O)(=O)N2CCCC2CNC(=O)C(=O)NCc2ccccc2)cc1 (stereo not drawn)	2	-7	-8%	2	-0.4	42%[15.4 µM]
CCCCc1ccc(NC(=O)CSc2nc(=O)n3cc(C)ccc3n2)cc1	-3	-4	-9%	-4	-6.6	9%[15.4 µM]
C=CCN=c1scc(-c2ccc(F)cc2)n1/N=C/c1ccccn1	?	-2	-19%	?	12	-22%
CCOC(=O)c1c(N/C=C(\C#N)c2nc(-c3ccc(OC(C)=O)cc3)cs2)sc2c1CCC2	-3	-3	-5%	5	-2.3	?
Cc1cc(C)n2nc(SC(C)C(=O)N3CCOCC3)nc2n1 (stereo not drawn)	4	2	9%	0	-1.0	11%[15.4 µM]
CC(=O)Oc1ccc(C2OC(=O)c3ccccc3N2C(C)=O)cc1 (stereo not drawn)	0	-8	?	-7	-1.0	-4%
CC(C)(C)c1cc(C(=O)NCCCn2ccnc2)cc(C(C)(C)C)c1	-8	-7	-4%	.	1.8	21%
CCOCCCNC(=O)c1cc(-c2cccnc2)nc2ccc(S(=O)(=O)N3CCC(C)CC3)cc12	0	1	11%	.	0.8	-18%
COc1cccc(C(=O)OCC(=O)NC(C)CCc2ccccc2)c1O (stereo not drawn)	-14	-8	-8%	.	-3.4	2%
COc1ccccc1-c1c(C(F)(F)F)oc2c(CN(C)C)c(O)ccc2c1=O	8	-1	4%	.	4.3	0%
Cc1ccc(-n2c(SCC(=O)O)nc3sc4c(c3c2=O)CC(C)(C)SC4)cc1	1	-5	6%	1	-0.2	16%
CC(=O)Nc1cccc(C(=O)OCc2ccc([N+](=O)[O-])cc2)c1	6	0	-6%	8	-2.0	19%
O=C(CCCOc1ccccc1)NNC(=O)c1ccc(Cl)cc1	5	-3	5%	.	-0.4	-14%
CCn1ccnc1CN(C)Cc1cn[nH]c1-c1ccc(F)cc1F	-27	-3	3%	?	-1.4	3%
CN(C)S(=O)(=O)c1ccc(C(=O)Nc2nnc(SCC(=O)NCC3CCCO3)s2)cc1 (stereo not drawn)	-2	-19	0%	4	-6.0	7%
CCOC(=O)N1CCN(C(=O)c2cc(-n3cnnc3)ccc2Cl)CC1	9	0	2%	1	6.8	-27%
O=C(N/N=C\C=C\c1ccc2c(c1)OCO2)C1COc2cc3ccccc3cc2O1 (stereo not drawn)	4	-4	-12%	-5	0.6	-23%
CCCN(C(=O)c1cccc(-n2cccc2)c1)c1c(N)n(Cc2ccccc2)c(=O)[nH]c1=O	-5	-27	3%	23	-3.0	7%[15.4 µM]
COC(=O)c1ccsc1NS(=O)(=O)c1ccccc1	1	-1	3%	4	-5.5	?
O=C(COC(=O)c1cncc(Br)c1)NCc1ccco1	-11	0	-6%	5	-3.0	?
COc1ccc(CCC(=O)Nc2nc3ccccc3[nH]2)cc1OC	-3	3	7%	-2	-0.6	0%
O=C(NCc1ccc2c(c1)OCO2)C1CCCN1C(=O)Nc1ccccc1 (stereo not drawn)	0	-15	6%	15	-0.7	5%
COc1cccc(CNC(=O)CN(C)S(=O)(=O)c2ccc3c(c2)c(=O)n(C)c(=O)n3C)c1	-19	-2	-6%	-21	0.2	27%
Cc1ccc(Cn2ncc3c(N4CCN(C5CCCC5)CC4)ncnc32)cc1	0	-7	-5%	4	-3.6	?
CC1(c2ccc(Cl)cc2Cl)NC(=O)N(CC(=O)NC2CCCCC2)C1=O (stereo not drawn)	4	-4	2%	10	0.4	22%
CCOC(=O)C1(C)NC(c2cccc(C)c2)C2C(=O)N(c3ccccc3)C(=O)C21 (stereo not drawn)	-1	-8	1%	.	-1.8	-29%
CSc1ccccc1NC(=O)CN(C)C(=O)CNC(=O)c1ccc(Oc2ccccc2)cc1	1	-4	.	1	-4.1	-6%
COP(=O)(OC)c1nc(-c2cccc3ccccc23)oc1NCc1ccccc1	15	-13	21%	33	-1.1	-20%
O=C(COc1ccc(Cl)cc1Cl)NC(=S)Nc1ccc(CN2CCOCC2)cc1	-12	-19	-19%	0	1.1	12%[15.4 µM]
COc1ccc(C(=O)N2CCN=C2SC)cc1	10	-1	14%	10	6.0	-5%[15.4 µM]
C/C(=N\Nc1ccc(C#N)cc1[N+](=O)[O-])c1ccc(O)cc1	-17	-3	4%	-21	14	18%
Cc1c(C(=O)O)[nH]c2c1C(=O)CC(c1ccc(Cl)cc1)C2 (stereo not drawn)	-2	5	-14%	6	-3.8	-45%
O=C(C1CC(=O)N(c2ccc(Cl)cc2)C1)N1CCN(Cc2ccc3c(c2)OCO3)CC1 (stereo not drawn)	2	-5	2%	-2	3.6	2%
(more compounds)
SMILES	Six1-Eya2 blk	D2 potentiator	gsp antag	CtBP-E1A blk	D2 ag	gsp agonist
OCC(O)CSc1nc(-c2ccccc2)nc2c1CCC2 (stereo not drawn)	-9	-6	4%	-7	-1.3	-15%
COCCNC(=S)Nc1ccc2[nH]c(=O)[nH]c2c1	2	-14	-6%	.	-1.9	-2%
O=C(COc1ccc(-c2ccccc2)cc1)N/N=C/c1cc(O)ccc1Br	-13	-8	-26%	-20	-2.5	-2%
Cc1cccc(Cn2c(N3CCN(C)CC3)nc3c2c(=O)n(C)c(=O)n3C)c1	-20	-10	5%	0	1.0	5%[15.4 µM]
CC1CC(C)CN(Cc2nc3c(c(=O)n(C)c(=O)n3C)n2CCN2CCOCC2)C1 (stereo not drawn)	2	-9	3%	4	-0.3	?

Of the compounds above, these contain an aryl thioether with sulfur outside any ring:
SMILES	Six1-Eya2 blk	D2 potentiator	gsp antag	CtBP-E1A blk	D2 ag	gsp agonist
CCCn1c(SCC(=O)Nc2ccccc2C(=O)NC2CC2)n[nH]c1=O	7	-3	31%	1	-4.1	45µM*
Cc1ccc(SCCN2CCN(C)CC2)cc1	2	-18	6%	-12	0.8	-35%[inhibitor]
CSc1nnc(C(C)(C)C)c(=O)n1/N=C/c1c(O)ccc2ccccc12	-2	0	-14%	-2	-0.3	5%[15.4 µM]
COc1cccc(C(=O)CSc2nnc(CNc3nc(-c4ccccc4)cs3)n2C)c1	?	-6	-10%	?	2.6	-31%[inhibitor]
CCCCc1ccc(NC(=O)CSc2nc(=O)n3cc(C)ccc3n2)cc1	-3	-4	-9%	-4	-6.6	9%[15.4 µM]
Cc1cc(C)n2nc(SC(C)C(=O)N3CCOCC3)nc2n1 (stereo not drawn)	4	2	9%	0	-1.0	11%[15.4 µM]
Cc1ccc(-n2c(SCC(=O)O)nc3sc4c(c3c2=O)CC(C)(C)SC4)cc1	1	-5	6%	1	-0.2	16%
CN(C)S(=O)(=O)c1ccc(C(=O)Nc2nnc(SCC(=O)NCC3CCCO3)s2)cc1 (stereo not drawn)	-2	-19	0%	4	-6.0	7%
CSc1ccccc1NC(=O)CN(C)C(=O)CNC(=O)c1ccc(Oc2ccccc2)cc1	1	-4	.	1	-4.1	-6%
OCC(O)CSc1nc(-c2ccccc2)nc2c1CCC2 (stereo not drawn)	-9	-6	4%	-7	-1.3	-15%
